# gsp ag – qHTS for Agonist of gsp, the Etiologic Mutation Responsible for Fibrous Dysplasia/McCune-Albright Syndrome: qHTS; 340,000 tested, 0.13% active; gsp mutant cells, cAMP HTRF, 30 min; control for the full effect not named in the record; AID 624287, 2012; Potency, µM (top dose mostly 76.9 µM), for inactives: at the highest dose activation (cAMP increase), actives largely listed as activators; active = well fitted activation curve with a large enough effect; inconclusive = small, poorly fitted or top-dose-only effect, or another doubt; inactive = no such curve, though single readings can be large or run the other way; cell line not stated here;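 note: phosphodiesterase inhibitor Ro 20-1724 added with compounds to block cAMP breakdown; potency is the fitted concentration of half-maximal effect; nearly all actives have a fitted effect of over 60% in size; about a fifth of the inactives were tested at one dose only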
#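 Cells stably selected in G418 were plated at 2000/well, grown 16-24 hr, then given compounds in DMSO with the PDE inhibitor […] (300 uM solution added) for 30 min at 37C; cAMP was read by HTRF.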
# Sfp PPTase inh – qHTS Assay for Inhibitors of Bacillus subtilis Sfp phosphopantetheinyl transferase (PPTase) | 4'-phosphopantetheinyl transferase ffp (Bacillus subtilis), Q9F4F7 | Biochemical Sfp PPTase activity, qHTS | Potency, µM, for inactives: max response, negative = inhibition, most hits filed as inhibitors | 310,000 tested, 3.5% active; active = well fitted inhibition curve with a large enough effect; inconclusive = small, poorly fitted or top-dose-only effect, or another doubt; inactive = no such curve, though single readings can be large or run the other way;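 note: the enzyme is Sfp with the accession as filed and its product quenches rhodamine fluorescence; potency is the fitted concentration of half-maximal effect; 0% = enzyme reaction without inhibitor and -100% = no enzyme wells; top concentration of the series not given in the record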
#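 Fluorescence-quenching assay: 15 nM Sfp-PPTase preincubated 15 min at room temperature with compound, then 5 uM rhodamine-CoA and 12.5 uM BHQ-2-labelled YbbR peptide added. Fluorescence (ex 525/em 598 nm) read at start and after 30 min; difference gives rate.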
# ClpP mod – qHTS Assay for Activators of ClpP | ATP-dependent Clp protease proteolytic subunit (Bacillus subtilis (strain 168)), P80244 | purified B. subtilis ClpP, FRET peptide cleavage, 20 min | Potency, µM (titrated, usually from 57.5 µM), for the others: at the top dose activity change, negative = active | 340,000 tested, 1.9% active; active = well fitted falling curve with a large enough effect; inconclusive = small, poorly fitted or top-dose-only effect; inactive = no such curve, though single readings can be large or run the other way; note: potency is the fitted concentration of half-maximal effect; the source files actives as falling curves though it sought activators and does not explain the sign; nearly all actives have a fitted effect of over 65% in size; many hits overshoot -100%
# Target sequence (P80244 whole entry, looked up): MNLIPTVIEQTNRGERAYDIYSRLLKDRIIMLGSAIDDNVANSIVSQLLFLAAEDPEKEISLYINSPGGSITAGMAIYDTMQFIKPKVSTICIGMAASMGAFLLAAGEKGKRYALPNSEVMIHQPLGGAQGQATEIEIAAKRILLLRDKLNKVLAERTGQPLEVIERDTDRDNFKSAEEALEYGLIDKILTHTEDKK
#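 ClpP 10 microg/mL final, pH 8 Tris/KCl buffer with BSA, glycerol, Tween-20; compound pinned in; FRET-FV substrate; RT 20 min; Ex320/Em430; ΔFRET vs ADEP 5.8 microM, DMSO, no enzyme.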
# PINK1 modulator – A Quantitative High throughput Screen to Identify Chemical Modulators of PINK1 Expression | 410,000 tested, 0.2% active | Potency, µM (titrated, usually from 76.6 µM), for the others: top-dose activation (PINK1 increase), usual class: activators | AID 624263, 2012 | PINK1 immunofluorescence, high-content cytometry, 24 h; active = well fitted activation curve with a large enough effect; inconclusive = small, poorly fitted or top-dose-only effect; inactive = flat fitted curve, though single readings scatter; cell line not stated here;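 note: potency is the fitted concentration of half-maximal effect; % of control where 0% means no effect; nearly all actives have a fitted effect of over 65% in size; a mitochondrial uncoupler was the plate control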
#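 PINK1 protein level read as immunofluorescence by microplate cytometer in a fixed, stained stable cell line after 24 h exposure to five compound concentrations, with CCCP as control.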
# Menin MLL FP FL – qHTS Assay for Inhibitors Targeting the Menin-MLL Interaction in MLL Related Leukemias: Competition With Fluorescein Labeled MLL-derived Peptide; Fluorescence polarization, fluorescein-MLL peptide displacement from menin; FP activity change, % at 61.4 µM; 290,000 tested, under 10 active; AID 1766, 2009; inconclusive = falling polarisation curve, or a change in total fluorescence; inactive = total fluorescence flat and polarisation flat or rising; no compound was filed as active; the % refers to the polarisation; negative = inhibition;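 note: % of control where 0% means no effect; inhibitors lower the polarisation; unlabelled MLL peptide was the positive control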
# gsp antagonist – qHTS for Antagonists of gsp, the Etiologic Mutation Responsible for Fibrous Dysplasia/McCune-Albright Syndrome: qHTS | gsp-mutant cells, cAMP HTRF, 30 min; control for the full effect not named in the record | Potency, µM (series often up to 76.9 µM), for inactives: at the highest dose activity change, negative = inhibition, hits mostly inhibitors | 340,000 tested, 0.4% active; active = falling curve of any shape with a large fitted effect; inconclusive = falling curve, mostly with a smaller effect; inactive = flat or rising curve; cell line not stated here;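 note: intracellular cAMP measured with PDE inhibitor Ro 20-1724 present during compound exposure; potency is the fitted concentration of half-maximal effect; % is set by controls: 0 for no effect and ±100 for the full control effect; nearly all actives have a fitted effect of over 65% in size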
#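 HTRF cAMP read-out (cAMP-d2 plus anti-cAMP antibody-K in lysis buffer, 30 min RT). Before lysis, cells are exposed to compounds with […] for 30 min at 37C in DPBS containing Ca/Mg, BSA and Tween 20.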
# D2 ag – Beta-Arrestin HTS for Positive Allosteric Modulators of the Human D2 Dopamine Receptor: Agonists. D(2) dopamine receptor (Homo sapiens), P14416. DiscoveRx PathHunter D2 beta-arrestin, luminescence, 90 min; 100% = 57 uM dopamine signal. activation, % (concentration not given with the values). 360,000 tested, 0.084% active; in the data active = activation above about 40%; inconclusive = about 15% to 40%; inactive = below about 15%; note: compound concentration not given in the record; the text of the record calls up to 30% inactive
# Target sequence (P14416 whole entry, looked up): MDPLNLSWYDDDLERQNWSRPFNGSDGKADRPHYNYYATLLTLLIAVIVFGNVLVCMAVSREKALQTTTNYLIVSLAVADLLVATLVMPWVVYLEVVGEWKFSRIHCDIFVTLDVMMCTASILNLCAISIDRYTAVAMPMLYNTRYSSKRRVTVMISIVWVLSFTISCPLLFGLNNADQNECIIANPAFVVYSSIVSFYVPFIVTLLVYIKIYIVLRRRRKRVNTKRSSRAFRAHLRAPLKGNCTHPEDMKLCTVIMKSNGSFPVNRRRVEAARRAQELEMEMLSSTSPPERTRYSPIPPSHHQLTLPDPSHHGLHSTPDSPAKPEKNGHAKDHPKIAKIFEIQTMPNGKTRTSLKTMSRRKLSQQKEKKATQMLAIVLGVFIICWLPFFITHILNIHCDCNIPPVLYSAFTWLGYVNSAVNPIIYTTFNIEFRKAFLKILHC
#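 Agonist mode: compounds alone added to overnight-plated D2 PathHunter cells for 90 min at 37 C, with 57 uM final dopamine (EC100) defining full response. Beta-arrestin recruitment detected by chemiluminescent reagent, read after 1 h at ambient temperature.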
# * marks the source's active call; other numbers are inactive results; ? = inconclusive; . = no result given; & = joins results of further samples; [ ] = another dose, or the depositor's remark.
SMILES,gsp ag,Sfp PPTase inh,ClpP mod,PINK1 modulator,Menin MLL FP FL,gsp antagonist,D2 ag
COc1ccc(C=C2C=C(C(C)(C)C)C(=O)C(C(C)(C)C)=C2)cc1OC,-1.9%,-21.7%,.,1.8%,-4.6,-8.6%,-1.9
Cc1ccc2[nH]c(=O)c(CN(CC3CCCO3)S(=O)(=O)c3c(C)ccc4nsnc34)cc2c1 (stereo unspecified),3.6%,4.3%,0.2%,-1.9%[38.3 µM],-2.7,-9.4%,-2.1
COC(=O)c1ccc(CN2CCCCC2)cc1,5.3%,6.6%,1.9%,4.4%,1.2,2.9%,-3.9
COc1cc(C2CC(=O)c3cnc(N4CCN(Cc5ccccc5)CC4)nc3C2)cc(OC)c1OC (stereo unspecified),-8.5%,-19.4%,-3.5%,3.4%,-0.4,-1.8%,-2.6
COc1ccc(NC(=O)c2cc(-c3cccc(OC)c3)on2)cc1,?,4.5%,.,0.9%,-2.0,5.8%,-1.9
CC(=O)c1ccc(OCC(O)COc2ccc(C(C)=O)cc2)cc1,-49.3%,13.3%,1.3%,-1.0%[38.3 µM],0.1,-7.5%,-2.9
COc1ccc(NC(C)=O)cc1CP(=O)(c1ccccc1)c1ccccc1,?,2.1%,-0.9%,1.5%,-3.1,9.1%,2.5
CCOC(=O)N1CCC(NC(=O)C2=CCN(S(=O)(=O)c3ccccc3)CC2)CC1,?,8.5%,1.7%,2.3%,-2.2,-4.1%,-2.5
CCC(C)n1c(SCC(=O)Nc2cc(C)on2)nc2ccccc2c1=O (stereo unspecified),-12.3%,-8.7%,2.8%,0.7%,-1.7,13.2%,-0.2
CC(Oc1ccccc1)C(=O)N=C1SC2CS(=O)(=O)CC2N1Cc1ccccc1 (stereo unspecified),-23.4%,12.1%,1.2%,1.2%,-4.3,?,0.5
COc1ccc(-c2nc3c(C)cc(Br)cn3c2Cc2ccccc2)cc1OC,.,.,-5.4%,4.0%,.,.,-2.6
COC(=O)c1sccc1S(=O)(=O)Nc1ccc(N2CCCCC2)cc1,-4.2%[15.4 µM],-9.0%,.,2.3%,2.2,5.1%,6.0
COc1cccc(-c2ccc(NC(=O)C3CCCN(Cc4cnc(N(C)C)s4)C3)cc2)c1 (stereo unspecified),-4.3%,-11.4%,-6.1%,0.7%,.,-30.2%,2.0
COc1ccccc1/C=C/C(=O)OCC(=O)Nc1ccc2c(c1)OCCO2,16.3%,.,45.9%,-0.7%,.,-24.7%,-3.9
O=C(NCC1COCCO1)c1ccc2nc(Cc3cccc(Cl)c3)oc2c1 (stereo unspecified),2.9%[15.4 µM],6.4%,-1.1%,-0.1%,.,-8.4%,3.3
COc1ccc(-n2ncc(C(C)NS(=O)(=O)c3ccc(C)s3)c2C)cc1 (stereo unspecified),-5.3%[15.4 µM],1.3%,1.4%,-0.3%,.,-5.3%,1.3
CC1CC(C)(C)NC(=S)N1CCCC(=O)Nc1ccc(Cl)cc1 (stereo unspecified),19.1%[15.4 µM],18.2%,-4.9%,-1.9%,-1.1,-6.3%,-3.9
Clc1ccc(-c2csc(N3CCN(c4ccccc4)CC3)n2)cc1,8.6%,16.1%,-0.7%,18.7%,9.1,7.1%,-0.5
O=C(CCC(=O)OCC(=O)c1ccc([N+](=O)[O-])cc1)NC1CCCCC1,4.0%,-14.0%,1.7%,5.9%,1.7,-15.8%,2.2
Cc1cccc(-n2cc(C(=O)O)c(=O)cc2C)c1,19.9%,18.7%,.,-1.2%,-6.7,7.6%,-1.6
CC(NS(=O)(=O)c1ccc(OCC(=O)NCc2ccccn2)cc1)c1ccccc1 (stereo unspecified),-33.2%[inhibitor],9.8%,.,2.1%,2.1,-6.9%,9.8
Cn1c(CCC(=O)OCC(=O)NCC(F)(F)F)nc(=O)c2ccccc21,?,24.6%,.,-0.3%,1.5,-5.5%,0.0
CS(=O)CC(O)(c1ccc(F)cc1)C1CC1 (stereo unspecified),-35.5%[inhibitor],.,1.1%,-1.4%,.,.,-4.2
Cc1ccc(-c2nnc(C)c(N3CC(C)OC(C)C3)n2)cc1 (stereo unspecified),2.7%,6.3%,-2.2%,0.3%,0.7,-3.5%[15.4 µM],-1.1
N#C/C(=C/c1ccc(F)cc1)c1nc(CCN2C(=O)c3ccccc3C2=O)cs1,-11.3%,9.0%,-2.5%,9.3%,?,-2.2%,-2.9
COc1cccc(NC(=O)Nc2ccc(C(C)(C)C)cc2)c1,-9.5%[15.4 µM],12.7%,.,?,-1.0,-4.1%,-1.5
O=C(NC1CCCC1)C1CC(=O)N(c2ccc(F)c(Cl)c2)C1 (stereo unspecified),?,9.4%,-0.2%,-2.1%,.,4.7%,3.0
CN(C)c1ccc(C(C(=O)NC2CCCC2)N(Cc2cccnc2)C(=O)c2snc(C(N)=O)c2N)cc1 (stereo unspecified),-4.0%[15.4 µM],19.1%,0.3%,0.8%,4.0,-29.9%,-4.5
COc1ccc(OCCC(=O)NC2=NCCS2)cc1,-10.2%,6.7%,-0.8%,-0.7%,0.1,10.0%,-2.3
Nc1n[nH]c2c1C1(CCCC1)Cc1ccccc1-2,?,?,-14.9%,-0.2%,-2.3,9.1%,-3.2
O=C1C(Cc2ccccc2)Nc2ncnc(N3CCc4ccccc4C3)c2N1Cc1ccccc1 (stereo unspecified),-39.8%[inhibitor],.,-7.6%,4.8%,.,-9.5%,-2.6
Oc1ccc(/C=N/Nc2ccc(C(F)(F)F)cn2)cc1,-12.6%,0.5%,-19.9%,-0.9%,-1.3,-3.1%,1.7
CC1CCN(c2c([N+](=O)[O-])c(=O)n(-c3ccccc3)c3ccccc23)CC1,0.4%,-10.2%,-17.2%,-1.3%,3.2,1.5%,-5.1
Cc1ccc(S(=O)(=O)N2CCC(C(=O)NNC(=O)C3CC3)CC2)cc1Cl,15.3%[15.4 µM],10.5%,.,1.2%,-0.1,-0.9%,-0.7
CCCc1noc2c1/C(=N\O)CCC2,-19.3%,9.0%,1.1%,-3.7%,1.5,-2.6%,-3.8
COc1ccc(-n2c(Cn3c(=O)sc4ccccc43)nnc2SCC(=O)N2CCOCC2)cc1,?,7.5%,-0.6%,-0.9%,-1.2,-0.2%,-1.8
CN1CCN(c2nc(N3CCN(CCO)CC3)nc3ccccc23)CC1,-2.6%[15.4 µM],5.5%,-0.9%,-2.1%,4.3,13.2%,-4.2
COCCNC(=S)NNC(=O)c1cc(-c2cccnc2)nc2ccccc12,?,11.5%,1.5%,1.2%,-0.5,3.0%,-15.6
COc1cccc(CN2CCNC(=O)C2CC(=O)NCc2cc(C(C)C)no2)c1 (stereo unspecified),16.9%,3.5%,.,1.2%,-7.0,3.1%,-0.1
COc1ccccc1CCC(=O)NNC(=O)Cn1nc(C)cc1C,6.1%,.,-1.3%,-0.5%,.,.,-3.5
Cc1cc(-n2nc(C)cc2C)n2nc(C)c(-c3ccccc3)c2n1,11.2%,14.8%,-1.0%,1.2%[38.3 µM],2.4,6.2%,0.1
CCOC(=O)C1CCN(C(=S)Nc2cc(OC)c(OC)cc2C(=O)OC)CC1,30.4%,-10.6%,1.5%,-2.4%[38.3 µM],2.4,-6.4%,-1.0
CSc1ccc(/C=C/c2ccc3cccc(O)c3n2)cc1,3.3%[15.4 µM],-10.1%,.,10.7%,-0.1,4.1%,-7.5
COc1ccc(NC(=O)C(c2cc3c(cc2[N+](=O)[O-])OCO3)N(C)Cc2ccccc2)cc1 (stereo unspecified),-1.6%[15.4 µM],-3.0%,-0.5%,1.2%,-0.4,?,-1.4
CN(c1ccccc1)S(=O)(=O)c1nnc(NC(=O)c2ccco2)s1,-1.2%,34.0%[activator],-5.3%&-6.4%,-0.5%&1.4%,.,-7.5%,-1.1
O=C(OCC(=O)N(Cc1ccccc1)Cc1ccccc1)c1ccccc1O,-19.1%,.,-8.7%,-0.8%,.,-27.9%,-3.5
CCOC(=O)N1CCN(C(=O)COC(=O)c2ccc(Cl)nc2)CC1,-43.6%,.,0.9%,-0.7%,.,12.8%,0.8
CNc1cncc(-c2ccc(S(C)(=O)=O)cc2)n1,.,.,4.0%,0.1%,.,.,-2.8
O=C(CCCN1C(=O)/C(=C/c2cccs2)SC1=S)NNC(=O)c1ccccc1O,10.1%,21.0%,-4.2%,5.9%,7.5,-19.9%,-1.7
CCC(C)c1ccccc1OCCCN(C)Cc1ccccc1 (stereo unspecified),12.5%[15.4 µM],-0.7%,-2.7%,1.8%,2.2,15.9%,-2.8
# Additional structures.
SMILES,gsp ag,Sfp PPTase inh,ClpP mod,PINK1 modulator,Menin MLL FP FL,gsp antagonist,D2 ag
CCn1ncc(Br)c1C(=O)Nc1ccn(C23CC4CC(CC(C4)C2)C3)n1,1.7%,2.8%,-0.5%,8.5%,2.4,?,-2.0
CC1=C(C(=O)OCc2ccccc2)C(c2ccc(Br)cc2)NC(=O)N1CCCC(=O)O (stereo unspecified),6.5%,8.8%,0.7%,-1.3%,-1.5,-21.0%,-4.6
CCOC(=O)C1=C(C)N(C)C(C)=C(C(=O)OCC)C1c1ccc(Cl)cc1,-3.2%[15.4 µM],-20.9%,.,5.1%,.,5.3%,-3.7
COc1ccc(OC)c(/C=N/NC(=O)c2[nH]nc3c2CCc2ccccc2-3)c1,-3.8%,19.0%,4.1%,0.0%,0.7,?,3.3
CCOC(=O)c1snc2c(=O)[nH]cnc12,-2.7%,10.4%,28.2µM*,-5.9%[38.3 µM],0.9,4.3%,1.7
COc1cc(OC)cc(C(=O)NC(C(=O)OCn2nnc3ccccc3c2=O)C(C)C)c1 (stereo unspecified),-16.1%,.,-0.5%,0.0%,.,-20.6%,6.1
CC(=O)Nc1nn(C)c2nc3ccc(C)cc3cc12,28.1%,7.6%,-10.3%,0.1%,8.0,-17.1%,-3.0

# The order is random; 5.1% or so of the library scored in one or more.
